Bst PK mod = Pyruvate Kinase; partly purified Bacillus stearothermophilus pyruvate kinase, luminescence ATP production; ribose 5-phosphate activator present at AC10; actives 1.2% (n = 51,000); Potency, µM; in the data active means potency below about 11 µM; inconclusive means mostly about 12 µM to 25 µM; inactive means weaker than that;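 the screen sought inhibitors and activators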;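 also: potency is read from the fitted curve at half-maximal effect; scaled between full activation by ribose 5 phosphate and full inhibition by luteolin; about four in five hits inhibit and the cells do not say which; series up to 57 µM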
YjeE inh = qHTS Assay for Inhibitors of YjeE; tRNA threonylcarbamoyladenosine biosynthesis protein TsaE (Escherichia coli (strain …; purified YjeE, fluorescence polarisation of a bound ADP probe; Potency, µM; actives 0.05% (n = 71,000); AID 605, 2007; active = well fitted falling curve; inconclusive = weaker or top-dose-only fall, or a rising curve; inactive = flat or poorly fitted curve;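 also: top concentration of the series not given in the record; excess ADP was the control for the full effect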
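Purified YjeE (10 uM) with BODIPY Texas Red-labeled ADP probe (2 uM); compounds pin-transferred, 15 min at room temperature. Binding inhibition read as decreased fluorescence polarization; ADP titration as control.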
* marks the source's active call; other numbers are inactive results; i = inactive; ? = inconclusive; · = no result given. The list is partial (hit frequency here may not be typical).

Bst PK mod	YjeE inh	SMILES
·	i	N[C@H](COP(=O)(O)O)C(=O)O
>57	i	CC(C)c1ccccc1N=C1SCCN1C1CCS(=O)(=O)C1 (centres undefined)
>57	i	Cc1c(C(=O)Nc2cnccn2)oc2ccccc12
>57	i	COc1ccccc1C(=O)NCCc1nc2ccccc2[nH]1
·	i	COc1ccc(C2C(C(=O)c3cccs3)=C(O)C(=O)N2c2nnc(C)s2)cc1OC (centres undefined)
·	i	CC(=O)C1(C)CC2=C(CCCC2(C)C)CC1C (centres undefined)
>57	i	O=c1c2c([nH]c3ccccc13)CCCCCC2
>57	i	Cc1cc(CN2CCOCC2)c(O)c(C2(C)CCCCC2)c1
·	i	COc1cc(OC)c(C2C(C#N)=C(N)OC3=C2C(=O)CC(C)(C)C3)cc1OC (centres undefined)
>57	i	Cc1nnc(NCc2ccncc2)c2ccccc12
>57	i	Cc1nc(NCCN2CCOCC2)c2nnn(Cc3ccccc3Cl)c2n1
>57	i	CCN(CC)C(=O)C1CCC(C)(C(=O)O)C1(C)C (centres undefined)
>57	i	CCSc1nnc(NC(=O)c2nc(-c3ccccc3)n(-c3ccccc3)n2)s1
·	i	O=C(Nc1nc(-c2nc3ccccc3s2)cs1)C1CC1
·	i	COc1ccc(Nc2nc3ccccc3nc2C)cc1
>57	i	CCCCCCn1c(CN2CCCC(C)C2)nc2c1c(=O)n(C)c(=O)n2C (centres undefined)
>57	i	COc1ccccc1CNC(=O)CCNC(=O)Cn1cnc2ccccc2c1=O
>26	·	COc1cc(/C=N/n2c(C)nnc2C)cc(OC)c1OC
>57	i	CS(=O)(=O)Nc1ccccc1C(=O)Nc1cccc(Cl)c1
·	i	CC(=O)N(c1ccc(Cl)cc1)c1c[nH]c2ccccc12

In another format: two of the compounds above.
COc1ccc(Nc2nc3ccccc3nc2C)cc1
- Bst PK mod: ·
- YjeE inh: i

CCCCCCn1c(CN2CCCC(C)C2)nc2c1c(=O)n(C)c(=O)n2C (centres undefined)
- Bst PK mod: >57
- YjeE inh: i

Next part
Bst PK mod	YjeE inh	SMILES
>57	i	Cc1cc(C)c2c(n1)nn1c(N3CCN(Cc4ccccc4)CC3)cc(C)nc21
>57	i	Cc1ccccc1N=C1NC(=O)CS1
>26	·	CC(C)CNC(=O)c1c(N)n(/N=C/c2ccccn2)c2nc3ccccc3nc12
>11	i	COc1cccc(NC(=O)N(Cc2cc3cc(C)cc(C)c3[nH]c2=O)CC2COCCO2)c1 (centres undefined)
·	i	CCC(=O)Nc1c(C)cc(C)cc1Cl
i	i	CCN(CC)c1ccc(-c2nn3c(-c4n[nH]c5c4CCC5)nnc3s2)cc1
>57	i	c1ccc(-n2nnnc2N2CCOCC2)cc1
·	i	Cn1c(=O)c(CCc2ccccc2)nc2cnc(Oc3ccccc3)nc21
·	i	NC(=O)CC[C@@H](N)C(=O)O
>57	i	CCn1c(-c2ccc(OC)c(OC)c2)n[nH]c1=S
·	i	Cc1ccc(-n2ncc3c(=O)[nH]c(SCC(=O)N4CCCCC4)nc32)cc1
>57	i	CCOCCn1c(CN2CCN(c3ccc(OC)cc3)CC2)nc2c1c(=O)n(C)c(=O)n2C
>57	i	COc1cc2c(cc1OC)C(c1cc(OC)c(OC)c(OC)c1)NCC2 (centres undefined)
>57	i	O=C(CCNc1cccc(Cl)c1)c1ccco1
>57	i	CCC(=O)Nc1ccc(OC)cc1OC
>57	i	CC1CCCN(S(=O)(=O)c2ccc(NC(=O)CN3CCN(C)CC3)cc2)C1 (centres undefined)
>57	i	CCOC(=O)c1sc(NC(=O)c2c(C)noc2C)c(C(=O)OCC)c1C
·	i	Cc1cccc(OCCSc2cc(C)nc(N)n2)c1
>57	i	CCCC(c1nnnn1Cc1ccc(F)cc1)N1CCN(C2CCCCC2)CC1 (centres undefined)
>57	i	O=C(CCN1C(=O)c2ccccc2C1=O)Nc1ccc(F)cc1F
>57	i	Cc1noc(C)c1COC(=O)c1ccc2c(c1)OCO2
>57	i	CCCCN1C2=NCCCN2c2cc(C)c(C)cc21
i	i	CCOC(=O)C1CCCN(S(=O)(=O)c2ccc(Br)s2)C1 (centres undefined)
>57	i	COc1ccc(-n2cnnc2SCC(=O)N(C)C2CCS(=O)(=O)C2)cc1 (centres undefined)
·	i	COC(=O)[C@@]1(Cc2ccc(OC)cc2)[C@H]2c3cc(C(=O)N4CCCC4)n(CCc4c[nH]c5cc(F)ccc45)c3C[C@H]2CN1C(=O)c1ccccc1
>57	i	CC(=O)Nc1ccc(S(=O)(=O)NCCc2ccccc2)cc1
?	i	O=C(Nc1ccc(Cl)cn1)C1CCCN1S(=O)(=O)c1ccc(Cl)cc1 (centres undefined)
>57	i	O=C1NC(=O)c2c(NC(=O)C3CCCO3)cccc21 (centres undefined)
>57	i	Cc1cc(C)c2nc(-c3ccccn3)cc(C(=O)Nc3cc(C)on3)c2c1
?	i	COc1ccccc1OCC(=O)Nc1ccccn1
>57	i	CC(=O)N1CN(CCCn2ccnc2)Cc2c1sc1c2CCCC1
·	i	COc1ccc(CNc2nc(-c3ccccc3OC)nc3ccccc23)c(OC)c1
>57	i	Cc1cc(N2CCN(C(=O)OC(C)(C)C)CC2)n2ncnc2n1
>26	·	O=C(Nc1ccc(Cl)cn1)C1CCCN1S(=O)(=O)c1ccccc1 (centres undefined)
>57	i	CCCCn1c(=O)[nH]c(=O)c2c1nc(-c1ccc(C#N)cc1)n2C1CCCC1
·	i	O=c1c(-c2ccc(F)cc2)nc2cnc(N3CCOCC3)nc2n1C1CC1
>57	i	CCOC(=O)C(C)Oc1ccc(C2NC(=O)NC(C)=C2C(=O)Nc2ccccc2C)cc1 (centres undefined)
·	i	CCC(COC(=O)Nc1cccc(C)c1)NC(=O)OCC(C)C (centres undefined)
>57	i	Cc1ccc(C(=O)Nc2cnc3sc(C)nn3c2=O)cc1
>57	i	O=C(Cc1cccs1)Nc1nc2ccccc2s1

Arranged by length of the SMILES (largest number first): part of the list above.
Bst PK mod	YjeE inh	SMILES
>57	i	CCOCCn1c(CN2CCN(c3ccc(OC)cc3)CC2)nc2c1c(=O)n(C)c(=O)n2C
>57	i	O=C(CCNc1cccc(Cl)c1)c1ccco1
>57	i	c1ccc(-n2nnnc2N2CCOCC2)cc1

Next part:
Bst PK mod	YjeE inh	SMILES
>57	i	COC(=O)C1=C(C)OC(N)=C(C#N)C1c1c(C)nn(-c2ccccc2)c1Cl (centres undefined)
>57	i	CC(C)(C)NS(=O)(=O)c1cccc(S(=O)(=O)c2cccc(S(=O)(=O)NC(C)(C)C)c2)c1
>57	i	COC(=O)CNc1nc(-c2ccncc2)nc2ccccc12
>57	i	O=C1[C@@H]2C(c3ccccc3Cl)=NO[C@@H]2C(=O)N1Cc1ccccc1
>57	i	Cc1ccc(NC(=O)COC(=O)CCc2c[nH]c(=O)[nH]2)cc1
>57	i	Cc1ccc(NC2=NC(c3ccc(C)cc3)n3c(nc(C)cc3=O)N2)cc1 (centres undefined)
>57	i	Cc1cc(C(=O)Nc2sc3c(c2C#N)CCC(C(C)(C)C)C3)no1 (centres undefined)
>57	i	O=C(c1cc(-c2cccs2)on1)N1CCN(c2ccccc2)CC1
>57	i	CCC(CC)C(=O)NCc1ccc2c(c1)cc(C)n2C
>57	i	CCOC(=O)c1ccccc1NS(=O)(=O)c1ccccc1
>26	·	O=C1CCC(=O)N1c1nc2n(n1)C(c1ccccc1)C=C(c1ccc(Br)cc1)N2 (centres undefined)
·	i	CN1CCN(c2ncc3nc(-c4cc(F)cc(F)c4)c(=O)n(CCc4ccccc4)c3n2)CC1
>57	i	COCc1[nH]nc2c1C(c1c(F)cccc1Cl)C(C#N)=C(N)O2 (centres undefined)
>57	i	Cn1c(=O)n(Cc2ccc(Cl)cc2)c(=O)c2c1nc1n2CCN1Cc1ccco1
>57	i	COc1ccc(C(c2nnnn2Cc2cccs2)N2CCN(c3ccccc3F)CC2)cc1 (centres undefined)
>57	i	CCN(CC(=O)NC1CCCCC1)S(=O)(=O)c1ccc(Cl)cc1
·	i	Cc1cc(C)n2nc(C(=O)NCc3ccccc3)cc2n1
·	i	CN(C)c1cccc(NC(=O)Cc2ccc(F)cc2)c1
>57	i	CCn1c(Cc2ccccc2)nnc1SCC(=O)Nc1nccs1
·	i	Nc1nc2c(c3c1c(=O)oc1ccccc13)CCCCC2
>57	i	O=C(CCN1CCN(CC(=O)Nc2ccccc2F)CC1)Nc1ccccc1F
·	i	Cc1cc(OC2CCCCC2)nc(-c2ccccc2O)n1
>57	i	Cc1ccc(-n2ncc(-c3nnc(SCC(=O)NC4CCCC4)o3)c2N)cc1C
>57	i	O=C(CNC(=O)c1ccco1)OCc1cccc(Cl)c1
>57	i	NCCc1nnc(SCc2ccccc2F)o1
>57	i	CC(C)(C)NC(=O)CSc1ncnc2c1nnn2Cc1ccccc1Cl
>57	i	C=CCc1ccc(OCCCCCN2CCOCC2)c(OC)c1
·	i	COC(=O)c1c(S(N)(=O)=O)c2ccccc2n1C
>57	i	CCOC(=O)N1CCN(C(=O)CSCC(=O)Nc2nc(-c3ccccc3)cs2)CC1
>57	i	CN(C)c1ccc(C(=O)OCC(=O)c2cccs2)cc1
·	i	CNC(=O)[C@H](C)[C@H]1C[C@]1(C)[C@H](NC(=O)OCc1ccccc1)c1ccccc1
·	i	N#Cc1ccccc1Cn1c(=O)n(-c2ccc(CC(=O)NCc3ccco3)cc2)c(=O)c2sccc21
>57	i	CSCC[C@H](NC(=O)CCn1nnc2ccccc2c1=O)C(=O)O
>26	·	CCOC(=O)c1ccc(CSc2ncn[nH]2)o1
·	i	O=C(NCc1cccnc1)C1CCN(C(=O)c2ccc(Cl)cc2Cl)CC1
·	i	Cc1cc(=O)oc2c1ccc1oc(/C(=N/O)c3ccccc3)c(C)c12
>57	i	Cc1ccccc1N1CCN(C(=O)C2CCCCC2)CC1
·	i	CS(=O)(=O)Nc1cccc(-c2nc(N3CCNCC3)c3ccccc3n2)c1
>57	i	O=C(NCN1C(=O)C2C3C=CC(C3)C2C1=O)Nc1ccccn1 (centres undefined)
·	i	CCCCSc1nc2c(c(=O)n1CC)SC(C)C2 (centres undefined)
>57	i	FC(F)(F)c1nc(N2CCN(c3ccccc3)CC2)nc2c1CCCCC2
·	i	CC1CC(C)CN(C(=O)CSc2nnc(-c3ccc(Cl)s3)o2)C1 (centres undefined)
·	i	COc1cc(C(=O)Oc2ccccc2N)cc(OC)c1OC
>57	i	Cc1ccc(Nc2ncccc2C(=O)O)cc1C
·	i	ClC/C=C/CCl
>57	i	CN(c1ccccc1C(=O)NCC1CCCO1)S(C)(=O)=O (centres undefined)
>57	i	COc1ccc(NC(=O)Cn2nnc(-c3ccccc3NC(=O)c3ccco3)n2)cc1
>57	i	CCOC(=O)c1c(NC(=O)C2CCN(S(=O)(=O)c3cccs3)CC2)sc(C)c1C
>57	i	COCCNC(=O)Nc1ccc2c(c1)N(C)C(=O)CS2
>57	i	CCOC(=O)N1CCN(S(=O)(=O)c2ccc3c(c2)oc(=O)n3C)CC1
>57	i	CCc1ccccc1NC(=O)C(C#N)Cc1cccnc1 (centres undefined)
·	i	CC1(C)CCCC2=C1CC1C(=O)N(O)C(=O)C1C2 (centres undefined)
·	i	[O-][N+]1(CC[N+]2([O-])CCCCC2)CCCCC1
>57	i	COc1ccc2c(=O)c3c(=O)n(Cc4ccco4)c(-c4ccccc4)nc3oc2c1
>57	i	Cc1c(NC(=O)C(C)OC(=O)COc2cccc3c2OC(C)(C)C3)c(=O)n(-c2ccccc2)n1C (centres undefined)
>57	i	Cc1onc(-c2ccccc2Cl)c1C(=O)NCC(=O)O
>57	i	COc1c(O)cccc1-c1nnn(CCC(=O)OCC(=O)c2ccccc2)n1
>57	i	O=C(CSc1nnc(-c2ccccc2F)n1C1CCCCC1)N1CCCC1
·	i	O=C(CCCOc1ccccc1)Nc1cccc(C(=O)O)c1
>57	i	Cc1ccc(C(C)C)c(OCC(O)CN2CCOCC2)c1 (centres undefined)

Other records follow.
Bst PK mod	YjeE inh	SMILES
>57	i	COc1ccc(C2C(=O)N(C3CCCCC3)CC(=O)N2Cc2ccco2)cc1 (centres undefined)
·	i	Cc1ccc(-c2nc3cnccn3c2Nc2ccc3c(c2)OCO3)o1
>57	i	C=CCNC(=O)NS(=O)(=O)c1ccc(C)cc1
>57	i	O=c1c2ccccc2nc2n1CC/C2=C/N1CCN(c2cccc(C(F)(F)F)c2)CC1
·	i	C/C(=N/NC1=NCCN1)c1cn(C2=NCCN2)nc1C
>57	i	CC(C)NC(=O)c1cc(-c2ccc(Br)cc2)on1
·	i	Cc1ccc(Nc2cc(-n3nc(C)cc3C)ncn2)c(C)c1
>57	i	O=C(Nc1ccc(C(F)(F)F)cc1Cl)c1ccc(Cn2cc(Br)cn2)o1

Filtered by structure: those above with a COOH group
Bst PK mod	YjeE inh	SMILES
·	i	N[C@H](COP(=O)(O)O)C(=O)O
>57	i	CCN(CC)C(=O)C1CCC(C)(C(=O)O)C1(C)C (centres undefined)
·	i	NC(=O)CC[C@@H](N)C(=O)O
>57	i	CSCC[C@H](NC(=O)CCn1nnc2ccccc2c1=O)C(=O)O
>57	i	Cc1ccc(Nc2ncccc2C(=O)O)cc1C
>57	i	Cc1onc(-c2ccccc2Cl)c1C(=O)NCC(=O)O
·	i	O=C(CCCOc1ccccc1)Nc1cccc(C(=O)O)c1

Screening data: PubChem, National Center for Advancing Translational Sciences (NCATS)
